Screening data from PubChem BioAssay.
VACV E9 pol inh: vaccinia E9 polymerase processive synthesis inhibition; in vitro processive DNA synthesis, absorbance read-out; stronger effect = lower value; some inactives read as strong as hits; normalized absorbance, % (concentration not given with the values); 0.94% of 46,000 active; AID 493162;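 active = replicate mean up to 90% and picked by the depositor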;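 also: 100% = median of the test wells of a plate; 100 nL library stock went into each well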
* = called active by the depositor. These rows are one share of the data. The share of hits here may be higher or lower than overall.

SMILES	VACV E9 pol inh
O=C(O)c1sccc1S(=O)(=O)N1CCN(c2ccc(C(F)(F)F)cn2)CC1	105.5
O=C(O)c1ccccc1-n1c(=O)c2cc3c(=O)n(-c4ccccc4C(=O)O)c(=O)c3cc2c1=O	96.1
Cc1cccc(NC(=O)c2cccc(C(=O)Nc3cccc(C)c3)c2)c1	100.3
CCCn1c(=S)[nH]c2cc(C(=O)N3CC(C)CC(C)C3)ccc2c1=O (stereo not given)	100.8
COc1ccc(/C=C/C(=O)NCC2(c3ccccc3)CCOCC2)cc1	100.1
Cn1ccnc1C(=O)c1cccs1	107.1
COc1cc(C)c(S(=O)(=O)Nc2ccc3nc(C)sc3c2)cc1C(C)C	99.8
Cc1nc2ncnn2c(C)c1Cc1cccc(C(F)(F)F)c1	100.8
O=C(Nc1ccccc1N1CCOCC1)c1ccccc1	101.5
COc1ccc(Cn2cc(-c3ccccc3)nn2)cc1	101.5
CC(=O)O[C@H]1C[C@@]2(C)[C@@H](C[C@@H](O)C3[C@]2(C)CC[C@H]2[C@H](C)[C@H](O)CC[C@]32C)/C1=C(/CCC=C(C)C)C(=O)O (stereo not given in full)	92.0
Cc1c(OCc2ccc(Cl)c(Cl)c2)ccc(C(=O)/C=C/N(C)C)c1O	86.2
Cc1ccnc(NC(=O)C2CCCCC2)c1	97.2
CC(=O)Nc1ccc(NC(=O)c2ccccc2OC(C)=O)cc1	106.4
COc1cccc(NC2=Nc3cccc4cccc2c34)c1	99.1
CC(=O)n1c(C=NCc2ccccc2)c(O)c2ccccc21	99.4
[N-]=[N+]=CC(=O)OCC(N)C(=O)O (stereo not given)	98.7
COc1cc(SC)ccc1C(=O)NC1CC1	99.7
COc1ccc(C2=NN(C(C)=O)C(c3ccccc3)C2)cc1OC (stereo not given)	100.0
CCCCn1c(=O)c(C#N)cc2c(=O)n3ccccc3nc21	100.6
Cc1cccc(NC(=O)c2cc3ccccc3oc2=O)c1	78.8
CCOC(=O)NC(=S)N1CCCC1	96.9
CCC(=O)NCCCc1nc2ccccc2n1Cc1ccccc1C	101.5
COc1ccc(CN(CCC(c2ccc3c(c2)OCO3)c2ccccc2OC)C(=O)c2ccco2)cc1 (stereo not given)	99.9
O=S1NN(c2ccccc2)S(=O)NN1c1ccccc1 (stereo not given)	83.7
Next part
SMILES	VACV E9 pol inh
CCOC(=O)CCN1C(=O)/C(=C/c2ccc(C)cc2)SC1=S	100.2
Cc1onc(-c2c(Cl)cccc2Cl)c1CSc1nncn1C(C)(C)C	106.2
CC(=O)NCCCc1nc2ccccc2n1Cc1ccccc1C	99.1
O=C(CSCc1ccc(F)cc1)NC1CCCCC1	110.2
Cc1oc2cc(O)ccc2c(=O)c1-c1nc2ccccc2s1	100.6
O=C1NC(=Nc2ccccc2)c2ccccc21	101.9
O=C(Nc1cccc(C(F)(F)F)c1)C(F)(F)F	87.6
CCOC(=O)C(C(=O)Nc1ccc(N(CC)CC)cc1)C1CCCCC1 (stereo not given)	100.2
O=C(COC(=O)Cc1ccc(Cl)cc1Cl)NC1CCCCC1	101.1
N/C(=N\O)c1c(-c2ccccc2)cc(-c2ccc(F)cc2)[nH]c1=O	98.5
N#Cc1c(Cl)nc(-c2ccccc2)nc1-c1ccccc1	109.0
CC(CNc1nc2ccccc2n2cnnc12)c1ccccc1 (stereo not given)	102.0
CC(C(=O)N1CCc2ccccc21)n1sc2ccccc2c1=O (stereo not given)	104.3
Cc1nn(-c2ccccc2)c2sc(C(=O)OCN3C(=O)c4ccccc4C3=O)cc12	100.1
CCNC(=O)CC1C(=O)N(CC)C(=S)N1NC(=O)c1ccccc1 (stereo not given)	99.8
Cc1ccc(-n2nc(C)c3c(C)c(CCC(=O)NCC4CCN(C5CCCC5)C4)c(C)nc32)cc1C (stereo not given)	92.9
O=C1CC(c2ccccc2)N(c2cccc(C(F)(F)F)c2)C(=S)N1 (stereo not given)	99.3
O=C(COC(=O)c1c2c(nc3ccccc13)CCC2)NC1CC1	98.7
c1ccc(N=c2scc(-c3ccccc3)n2Cc2ccco2)cc1	100.1
COc1ccc(CCNC(CC(=O)Nc2ccccc2)C(=O)O)cc1 (stereo not given)	84.9
O=C1NC(=Nc2ccc(F)cc2)S/C1=C/c1ccc2c(c1)OCO2	100.9
NS(=O)(=O)c1ccc(NC(=O)COc2ccc(F)cc2)cc1	92.2
COc1ccc(NS(C)(=O)=O)cc1	120.9
COc1ccc(CCC(C(O)C(F)(F)F)S(=O)c2ccccc2)cc1 (stereo not given)	97.1
CC(C)(C)c1ccc(/C=C2\CCCC(=C3SCCCS3)C2=O)c2c1OCO2	100.6
(list continues)
SMILES	VACV E9 pol inh
Cc1ccc(-c2cc(/C=C3/C(=O)C=Cc4ccccc43)c(O)o2)cc1	100.3
N#CC(c1ccc(Cl)cc1)(c1ncc(C(F)(F)F)cc1Cl)N1CCOCC1 (stereo not given)	89.7
COc1ccc(NC(=O)c2ccc(CN3CCS(=O)(=O)CC3)cc2)cc1	100.5
CC1(C)C(C(=O)NN2C(=O)c3ccccc3C2=O)C1(C)C	99.5
COC(CNC(=O)c1cc2c(=O)[nH]c3ccc(C)cc3c2s1)OC	85.4
CC(C)C(=O)Oc1cc(-c2ccccc2)c2oc(=O)sc2c1	94.4
Cc1ccc(Oc2ccc(OCC(=O)NCC3CCCO3)cc2)cc1 (stereo not given)	99.5
O=C(NN1C(=O)c2ccccc2NC1c1ccccn1)c1ccccc1 (stereo not given)	100.1
CCc1ccc(NC(=O)C2CCCN2S(=O)(=O)c2ccc3c(c2)C(C)(C)C(=O)N3C)cc1 (stereo not given)	103.8
CC(Oc1ccc(Cl)cc1Cl)C(=O)Nc1nc2c(s1)C(=O)CC(C)(C)C2 (stereo not given)	100.2
O=C(Cc1cccs1)Nc1ccc(N2CCCCC2)cc1	88.9
CC1SCC(=O)N(CC(=O)Nc2ccc(F)cc2F)C1=O (stereo not given)	106.7
CCOC(=O)c1sc(SC)c2c1CCc1cnc(SC)nc1-2	103.1
Cc1cc(C)cc(NC(=O)CCCC(=O)Nc2cc(C)cc(C)c2)c1	100.5
CN(c1ncnc2nc[nH]c12)C1CCCCC1	93.1
CCn1c(CCCNC(=O)c2ccc(OC)c(OC)c2)nc2ccccc21	100.5
O=C1CCCc2ccccc2N1Cc1ccccc1	100.7
Cc1[nH]c2ccccc2c1C(=O)CSc1ncnc2ccccc12	96.2
Cc1ccc(N2C(=O)C3C4C=CC(CNC(=S)NCc5ccccc5)(O4)C3C2=O)cc1 (stereo not given)	103.5
O=c1[nH]oc2c1CCNC2	101.8
COc1ccc2c(=O)c(Oc3ccccc3F)c(C)oc2c1	100.1
CSc1nnc(-c2ccc(C(F)(F)F)nc2C)o1	99.3
CCOC(=O)c1oc2ccccc2c1NC(=O)c1ccccc1	91.5
CCc1ccc(-c2cc(C(=O)OC)c3ccccc3n2)cc1	100.3
O=C(O)CCCC(=O)Nc1nc(-c2ccccc2)cs1	99.5

Reprinted from the part before: three entries; new compounds follow.
SMILES	VACV E9 pol inh
CCOC(=O)c1oc2ccccc2c1NC(=O)c1ccccc1	91.5
CCc1ccc(-c2cc(C(=O)OC)c3ccccc3n2)cc1	100.3
O=C(O)CCCC(=O)Nc1nc(-c2ccccc2)cs1	99.5
c1ccc2c(c1)CCN(Cn1cnc3ccccc31)C2	100.1
N#Cc1ccc(CSc2nc3ccccc3s2)cc1	100.5
O=C(O)CCC(=O)Nc1ccc(C(=O)N2CCCCC2)cc1	104.3
Cn1cc(C(=O)c2cccc(Cl)c2Cl)cc1C(N)=O	102.0
C[C@H](N)[C@H](O)c1ccc(O)c(O)c1	101.9
O=C(CSCc1ccco1)c1cc2ccccc2o1	100.3
OC(OCC1Cc2ccccc2O1)C1Cc2ccccc2O1 (stereo not given)	99.8
O=C(COc1ccc(Cl)cc1)Nc1cccc(Cl)c1	98.3
CC1CN(C(=O)c2cc3ccccc3oc2=O)CC(C)O1 (stereo not given)	98.4
Cc1c(C(=O)NCc2ccc(OC(C)C)cc2)oc2ccc3c(c12)C=CC(C)(C)O3	88.3
CC(=O)NCCOc1ccc(C2CCCCC2)cc1	99.0
Cn1cccc1Cc1nnc(SCC(N)=O)n1-c1ccc(F)cc1	101.0
O=C(Cc1cn2ccsc2n1)NC(c1ccccc1)c1ccccc1	100.8
CC(=O)Oc1ccc(C(c2ccc(OC(C)=O)cc2)c2ccccn2)cc1	100.1
CCn1cc(C(=O)O)c(=O)c2ccc(C)nc21	92.7
CSc1nc2ccccc2c(=O)n1C1CCCCC1	101.3
Cc1ccc(-c2nc(NCCC3=CCCCC3)c3ccccc3n2)cc1	99.1
O=C(CSc1cccc[n+]1[O-])c1cccs1	99.5
O=S(=O)(c1ccc(F)cc1)N1CCCC1	105.5
O=C(O)c1cc(C=Nc2ccc3c(c2)OCCOCCOCCO3)ccc1O	99.5
O=C(Nc1ccc(Cl)cc1Cl)c1cc2nc3c(c(C(F)(F)F)n2n1)CCc1ccccc1-3	98.8
CCCCC/C=C\C/C=C\C/C=C\CC1OC1CCCC(=O)O (stereo not given)	100.8
CCSc1nnc2c(n1)OC(c1cc3c(cc1Cl)OCO3)Nc1ccccc1-2 (stereo not given)	100.0
O=C(COC(=O)C12CC3CC(CC(Br)(C3)C1)C2)NC1CC1	103.0
O=C(NCCCN1CCCC1=O)c1cccc(Oc2ccccc2)c1	106.7
The results go on:
SMILES	VACV E9 pol inh
Cc1ccccc1CN1C(=O)C2(OCCCO2)c2ccccc21	94.8
COc1c(S(=O)(=O)Nc2cccnc2)ccc(Cl)c1Cl	91.8
CCOC(=O)c1c(NC(=O)CS(=O)(=O)c2cn(CC)c3ccccc23)sc2c1CCCC2	106.9
CC1CCCCC1NC(=O)CCCn1c(=O)[nH]c2ccsc2c1=O (stereo not given)	90.1
Cc1ccc(/C=[N+](\[O-])c2ccccc2C)o1	98.1
O=C(Nc1nnc(SCc2cccc(F)c2)s1)C1CCCCC1	101.4
Cc1cccc(N(C)S(=O)(=O)c2ccc3c(c2)C(C)(C)C(=O)N3C)c1	102.6
N[C@@H]1[C@@H](O)[C@H](O)[C@@H](CO)O[C@H]1O	102.1
O=C(C1CCCN(S(=O)(=O)c2cccc3nonc23)C1)N1CCN(c2ccc(F)cc2)CC1 (stereo not given)	103.1
CCOC(=O)CSC1=C(C#N)C(c2cccc(Cl)c2Cl)C2=C(CCCC2=O)N1 (stereo not given)	95.7
CCN1CCN(C(c2cccs2)C(C)NC(=O)c2ccco2)CC1 (stereo not given)	91.2
N#Cc1ccc(-c2cccc(C(F)(F)F)c2)nc1Cl	104.9
Cc1cccc2c(C(=O)NC(C)(C)C)cc(-c3ccccc3)nc12	100.5
Cc1cc(C(C)(C)C)cc(C(C)(C)C)c1NC(=O)/C=C/C(=O)O	105.2
COc1cccc(C=Nc2cccc(NC(=O)c3ccc(F)cc3)c2)c1O	93.4
O=c1[nH]c2ccccc2nc1C(F)(F)F	118.9
CC(C)(C)NC(=O)N1CCC(Nc2nccc(C(F)(F)F)n2)CC1	88.8

Reformatted comma-delimited: entries from further up.
Compound,VACV E9 pol inh
CCC(=O)NCCCc1nc2ccccc2n1Cc1ccccc1C,101.5
O=C1NC(=Nc2ccccc2)c2ccccc21,101.9
Cn1cc(C(=O)c2cccc(Cl)c2Cl)cc1C(N)=O,102.0
COc1ccc(CN(CCC(c2ccc3c(c2)OCO3)c2ccccc2OC)C(=O)c2ccco2)cc1 (stereo not given),99.9
CC1CN(C(=O)c2cc3ccccc3oc2=O)CC(C)O1 (stereo not given),98.4
COc1ccc(Cn2cc(-c3ccccc3)nn2)cc1,101.5
Cc1oc2cc(O)ccc2c(=O)c1-c1nc2ccccc2s1,100.6
COC(CNC(=O)c1cc2c(=O)[nH]c3ccc(C)cc3c2s1)OC,85.4
Cc1c(OCc2ccc(Cl)c(Cl)c2)ccc(C(=O)/C=C/N(C)C)c1O,86.2
CC(Oc1ccc(Cl)cc1Cl)C(=O)Nc1nc2c(s1)C(=O)CC(C)(C)C2 (stereo not given),100.2
Cn1ccnc1C(=O)c1cccs1,107.1
O=C(NCCCN1CCCC1=O)c1cccc(Oc2ccccc2)c1,106.7
